HNF4A DNA FP: change in binding of human HNF4A to DNA, primary screen, biochemical, fluorescence polarization, FITC-DNA; 1 h; activity change, % at 10 µM; 360,000 tested, 0.3% active; AID 1224865, 2016; in the data active = activity change above about 30%, passing the limit was not always enough;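 also: controls were the assay level and a saturating level of protein; the project sought stronger binding though the title names inhibitors; some compounds called inactive have numbers as strong as hits; positive values seem to mean higher polarization but the record does not say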
Target sequence (P41235 whole entry, looked up): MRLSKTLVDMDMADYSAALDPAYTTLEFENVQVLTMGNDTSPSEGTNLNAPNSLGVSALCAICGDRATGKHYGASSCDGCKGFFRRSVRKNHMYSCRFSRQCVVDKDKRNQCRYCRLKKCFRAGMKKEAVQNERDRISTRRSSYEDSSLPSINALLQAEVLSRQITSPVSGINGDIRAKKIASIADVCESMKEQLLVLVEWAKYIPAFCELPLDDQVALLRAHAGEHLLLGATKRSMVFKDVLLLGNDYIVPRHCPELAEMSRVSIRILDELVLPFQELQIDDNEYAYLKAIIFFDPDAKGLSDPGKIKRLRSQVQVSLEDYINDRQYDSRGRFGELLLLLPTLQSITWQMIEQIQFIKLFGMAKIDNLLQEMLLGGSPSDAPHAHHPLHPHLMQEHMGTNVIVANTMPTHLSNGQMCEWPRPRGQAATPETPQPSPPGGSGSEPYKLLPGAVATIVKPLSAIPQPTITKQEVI
Starred values were filed as active, the others as inactive. These rows are one share of the data. The share of hits here may be higher or lower than overall.

cpd | HNF4A DNA FP | molecule
1 | 1.1 | CC1(C(=O)Nc2ccc(F)cc2F)CCN1C(=O)Cc1ccc(Cl)cc1Cl (stereo not given)
2 | 8.4 | COc1ccc(CC(N)c2csc(NC(=O)c3cc(C(C)(C)C)oc3C)n2)cc1 (stereo not given)
3 | -2.5 | Nc1ccc(Cl)cc1C(=O)c1ccc[nH]1
4 | 3.0 | COc1ccc(-c2cc3nc(NCCNC(C)=O)n(C)c(=O)c3s2)c(C)c1
5 | 3.5 | Cc1cccc(S(=O)(=O)N(C)C[C@@H]2OCc3cnnn3CCCC(=O)N([C@H](C)CO)C[C@@H]2C)c1
6 | 0.2 | COC(=O)Cc1ccc(OC2(C)CCN(Cc3ccc4c(c3)OCCO4)C2)cc1 (stereo not given)
7 | 0.2 | CC(C)C(N)c1csc(Nc2ccc(C(F)(F)F)cn2)n1 (stereo not given)
8 | 37 | COc1ccc(-n2c(SCC(=O)NCC3CCCO3)nc3ccccc3c2=O)cc1Cl (stereo not given)
9 | 20 | CCOC1=C2[C@H](c3ccccc3)N(S(=O)(=O)c3ccc(C)cc3)C(C(C)(C)C)[C@H]2n2c(=O)n(-c3ccccc3)c(=O)n2C1 (stereo not given in full)
10 | 4.6 | CCc1c(-c2ccc(OC)cc2)ncn1Cc1cccc(-c2ccccc2)c1
11 | -0.5 | CC(C)N1CCC1(C)C(=O)Nc1ccc(-n2cccc2)cc1 (stereo not given)
12 | 9.0 | CC(=O)Nc1cccc(-c2cc(NC=O)c3ncc(-c4ccc(C(C)=O)cc4)n3c2)c1
13 | 0.9 | C[C@@H]1CN([C@@H](C)CO)C(=O)CCCn2nncc2CO[C@H]1CN(C)C(=O)Nc1ccc2c(c1)OCO2
14 | -7.1 | CN1CCN(C2CN(Cc3ccc(F)cc3)S(=O)(=O)C2)CC1 (stereo not given)
15 | -5.0 | NC(Cc1ccc(C(F)(F)F)cc1)c1csc(NC(=O)Nc2ccccc2Oc2ccccc2)n1 (stereo not given)
16 | -15 | CN(Cc1ccc2c(c1)CCCN2C)C(=O)[C@H]1O[C@@H](n2ccc(=O)[nH]c2=O)[C@H](O)[C@@H]1O
17 | 7.0 | CN1CCN(C(=O)c2cnc(Cc3c[nH]c4ccccc34)c(I)c2)CC1
18 | -1.2 | COC(=O)[C@@]12C[C@@H](CC(=O)N3CCN(C(=O)c4ccco4)CC3)C(=O)N(Cc3cccc4ccccc34)C1=CCC(C)(C)C2
19 | 1.6 | CC(=O)Nc1cccc(-c2nc3ccccc3n2C(C)C(=O)NC(C)(C)C)c1 (stereo not given)
20 | 2.9 | C[C@@H]1CCCCO[C@@H](CN(C)Cc2ccc(Cl)c(Cl)c2)[C@@H](C)CN([C@H](C)CO)C(=O)c2cc(NC(=O)Nc3ccccc3)ccc2O1

Reprinted at random: 3 records from the list, in no set order.
cpd | HNF4A DNA FP | molecule
18 | -1.2 | COC(=O)[C@@]12C[C@@H](CC(=O)N3CCN(C(=O)c4ccco4)CC3)C(=O)N(Cc3cccc4ccccc34)C1=CCC(C)(C)C2
5 | 3.5 | Cc1cccc(S(=O)(=O)N(C)C[C@@H]2OCc3cnnn3CCCC(=O)N([C@H](C)CO)C[C@@H]2C)c1
6 | 0.2 | COC(=O)Cc1ccc(OC2(C)CCN(Cc3ccc4c(c3)OCCO4)C2)cc1 (stereo not given)

More structures follow:
cpd | HNF4A DNA FP | molecule
21 | -2.6 | CCCCNC(=O)C(NC(=O)c1cnc(C)cn1)C(=O)c1ccccc1 (stereo not given)
22 | 3.6 | CC1(C(=O)NS(=O)(=O)c2ccc(Cl)s2)CCN1C(=O)C1(c2ccc(Cl)cc2)CC1 (stereo not given)
23 | 1.0 | O=C(NCCN1CCC(n2c(=O)[nH]c3ccccc32)CC1)C(c1ccccc1)c1ccccc1
24 | 1.3 | O=C(C1CCCCC1)N1C[C@@H](O)[C@H](n2cc(-c3ccc(F)cc3)nn2)C[C@@H]1c1ccc(Cl)cc1
25 | -0.1 | O=C(Nc1c(-c2ccc3c(c2)OCO3)[nH][nH]c1=O)c1cnccn1
26 | 1.2 | CCCS(=O)(=O)NC(=O)C1(C)CCN(C(=O)c2cccs2)C1 (stereo not given)
27 | -1.9 | CC(C)(C)NC(=O)C(C1CC1)n1c(-c2ccccc2)nc2ccccc21 (stereo not given)
28 | -2.6 | CN1CCC(N2CCN(C3CN(Cc4cn(Cc5cccc(C(F)(F)F)c5)nn4)S(=O)(=O)C3)CC2)CC1 (stereo not given)
29 | -1.5 | COC(=O)[C@]1(Sc2ccc(OC)cc2)CC(=O)N[C@@H]1c1ccccc1
30 | 1.7 | c1ccc(-c2cc3nc(NCc4cccs4)nc(NCc4ccc5occc5c4)c3s2)cc1
31 | 1.6 | CC(=O)NC(c1cccc(F)c1)c1nc(-c2ccc(N(C)C)cc2)cs1 (stereo not given)
32 | -2.8 | CC1(C)CN(C2CCCCC2)C(=O)[C@H]1CC(=O)Nc1ccc(Br)cc1
33 | 1.2 | CC(C)(C)OC(=O)N1CCC(NC(=O)c2[nH]c(C(F)(F)F)nc2-c2ccccc2)CC1
34 | 14 | O=C(NC1CCCCC1)C(c1ccccc1)n1c(=O)c(-c2ccco2)nc2ccccc21 (stereo not given)
35 | 3.4 | Cc1ccc(N2CCN(C3C(=O)Nc4ccccc4-n4nnnc43)CC2)cc1 (stereo not given)
36 | 2.2 | c1ccc2[nH]c(CCCCCc3nc4ccccc4[nH]3)nc2c1
37 | -0.8 | O=C1NC[C@@H](CCCCN2C[C@H](Cc3ccc(O)cc3)N(CCc3ccccc3)C(=O)C2=O)N(CCC2CCCCC2)C1=O
38 | 3.4 | NC(c1ccccc1)c1csc(Nc2cc(Oc3ccccc3)ncn2)n1 (stereo not given)
39 | -2.0 | COc1ccc(Cc2c(-c3cccc(Cl)c3)nc3c(C)cc(Br)cn23)c(C)c1
40 | 3.6 | COc1cccc(C=C2Cc3ccccc3C2=O)c1

Four compounds already listed, ordered by heavy-atom count, descending.
cpd | HNF4A DNA FP | molecule
38 | 3.4 | NC(c1ccccc1)c1csc(Nc2cc(Oc3ccccc3)ncn2)n1 (stereo not given)
21 | -2.6 | CCCCNC(=O)C(NC(=O)c1cnc(C)cn1)C(=O)c1ccccc1 (stereo not given)
36 | 2.2 | c1ccc2[nH]c(CCCCCc3nc4ccccc4[nH]3)nc2c1
40 | 3.6 | COc1cccc(C=C2Cc3ccccc3C2=O)c1

Remaining list, next part:
cpd | HNF4A DNA FP | molecule
41 | -1.8 | COc1cc(OC)cc(C2=Cc3ccccc3C(CC(C)=O)N2c2ccc(C#CC3(O)CCCCC3)cc2)c1 (stereo not given)
42 | 9.6 | COc1ccc(-c2cc(NC=O)c3ncc(-c4cccc(C(F)(F)F)c4)n3c2)c(OC)c1
43 | -5.8 | CC(C)Oc1cc(F)ccc1-c1cc(C(=O)Nc2cccc(C(F)(F)F)c2)[nH]n1
44 | 1.9 | CCCc1ccc(C(O)c2ncc(-c3cccc(OC)c3)[nH]2)cc1 (stereo not given)
45 | 7.3 | OC(c1ccc(F)c(F)c1)c1nc(-c2ccc3ccccc3c2)cs1 (stereo not given)
46 | 3.8 | CCOC(=O)[C@]12CCCC=C1N(Cc1ccco1)C(=O)[C@H](CC(=O)NCCc1ccccc1OC)C2
47 | -3.0 | Cc1cccc(C)c1NC(=O)C1(C)CSCC(=O)N1CCc1ccc(O)cc1 (stereo not given)
48 | 0.7 | COc1cccc(-c2cnc(C(O)c3ccc(C)cc3C)[nH]2)c1 (stereo not given)
49 | -0.3 | COc1ccc(S(=O)(=O)NNS(=O)(=O)c2ccc(OC)c(OC)c2)cc1OC
50 | 8.6 | Cc1cc(Br)cn2c(Cc3cccc(Cl)c3)c(-c3ccco3)nc12
51 | 4.1 | CC(C)C[C@@H]1COc2cc(N3CCC[C@H]3CO)ccc2S(=O)(=O)N1
52 | 0.1 | c1cc(N2CCOCC2)ccc1-c1ccc2nncn2c1
53 | 2.8 | COc1cccc(-c2cnc3c(NC=O)cc(-c4ccccc4Oc4ccccc4)cn23)c1
54 | 1.4 | COCOCCn1cc(CN2CCS(=O)(=O)N(Cc3ccc(-c4ccc(Cl)c(Cl)c4)cc3)C(C)C2=O)nn1 (stereo not given)
55 | -2.0 | COc1ccc(C(C)(O)c2nc(-c3ccc(Cl)cc3)cs2)cc1 (stereo not given)
56 | -2.6 | CCCCCCCCN1C(=O)[C@H](CC(=O)NCCCN2CCCC2=O)C[C@@]2(C(=O)OCC)CCCC=C12
57 | 3.5 | O=C(NCc1ccccc1)C1Cc2c(-c3ccc4c(c3)OCO4)ccnc2O1 (stereo not given)
58 | 1.7 | CCCCCCCCCc1conc1C(=O)/C=C/c1oc2c(c1C)CCC(C)C2 (stereo not given)
59 | -1.4 | COc1ccc(CN2C(=O)c3ccccc3C2c2nnnn2-c2ccc3c(c2)OCCO3)cc1 (stereo not given)
60 | 1.1 | CC(=O)Nc1ccc(CN(C)c2c(C)nc3ccc(C(=O)Nc4ccc(Cl)c(Cl)c4)cn23)cc1

(more compounds)
cpd | HNF4A DNA FP | molecule
61 | -1.6 | CC(C)c1cc(Cn2c3ccccc3c(=O)n2C(C)CBr)on1 (stereo not given)
62 | -0.5 | CCOC(=O)C1(C)CCN1C(=O)c1ccccc1OC (stereo not given)
63 | -1.6 | O=C(Nc1nnc([C@H]2C[C@H](O)[C@@H](CO)O2)s1)Nc1cccc2c1CCCC2
64 | -3.4 | COC(=O)c1cc(=O)nc(NN=C2c3ccccc3-c3ccccc32)s1
65 | 3.1 | CCCCc1c(-c2ccccc2F)ncn1CCc1ccccc1OC
66 | 5.3 | COc1ccccc1-c1cc(NC=O)c2ncc(-c3cccc(C(C)=O)c3)n2c1
67 | -3.9 | CC(C)=CCn1c2ccc(NC(=S)NC3CC3)cc2c(=O)n1C
68 | 0.1 | CC1(C(=O)Nc2ccc3c(c2)OCCO3)CN(S(C)(=O)=O)CC(=O)N1CCc1ccccc1F (stereo not given)
69 | 1.4 | COC(=O)[C@@]12C[C@@H](CC(=O)NCc3ccccc3)C(=O)N(Cc3ccccc3)C1=CCC(C)(C)C2
70 | -0.5 | CCCCC[C@H]1CCCCC[C@H](O)C[C@H](O)[C@@H](O)/C=C/C(=O)O1
71 | -0.6 | O=C(NCc1ccccc1)c1cc(C2COCCN2S(=O)(=O)c2ccccc2)on1 (stereo not given)
72 | 0.4 | CC1(C(=O)NS(=O)(=O)c2cccc(C#N)c2)CCN1C(=O)c1ccc(C2CCCCC2)cc1 (stereo not given)
73 | -0.6 | CSc1ccc(CN2CCC2(C)C(=O)Nc2cccc(Oc3ccccc3)c2)cc1 (stereo not given)
74 | 1.0 | CCOC(=O)Nc1ccc(S(=O)(=O)N2CCC(c3nc4ccccc4[nH]3)CC2)cc1
75 | -3.9 | CS(=O)(=O)Nc1ccccc1-c1ccc2nccn2c1
76 | 3.2 | CN(C)c1ccc(-c2csc(C(C)(O)c3ccccc3)n2)cc1 (stereo not given)
77 | -0.2 | CCOC(=O)C1=CC[C@@H](c2ccccc2)N(S(=O)(=O)c2ccc(C)cc2)[C@H]1C#N
78 | -1.7 | CCOC(=O)C1(C)CCCCCN1C(=O)c1ccc(SC(F)(F)F)cc1 (stereo not given)
79 | -0.8 | CC1(C(=O)NS(=O)(=O)c2ccc(C#N)cc2)CCN1C(=O)C1(c2ccc(Cl)cc2)CC1 (stereo not given)
80 | -2.1 | CCCS(=O)(=O)NC(=O)C1(C)CCCN(C(=O)c2ccccc2C(F)(F)F)C1 (stereo not given)

Given as labelled records: two of the compounds above
62: CCOC(=O)C1(C)CCN1C(=O)c1ccccc1OC (stereo not given)
- HNF4A DNA FP: -0.5

80: CCCS(=O)(=O)NC(=O)C1(C)CCCN(C(=O)c2ccccc2C(F)(F)F)C1 (stereo not given)
- HNF4A DNA FP: -2.1

(next part)
cpd | HNF4A DNA FP | molecule
81 | 1.7 | Cc1ccc2nc(NC3=NC4(CCCC4)C4=C(CCCC4=O)N3)oc2c1
82 | 3.3 | O=C(Nc1ccc2c(c1)OCCO2)C(C1CC1)n1c(=O)c(-c2cc3ccccc3[nH]2)nc2ccccc21 (stereo not given)
83 | 3.3 | CCOC(=O)[C@]12CCC=C1N(Cc1ccc(Cl)cc1Cl)C(=O)[C@H](CC(=O)NCCc1ccccc1OC)C2
84 | 1.4 | CCCS(=O)(=O)NC(=O)C1(C)CCCN(C(=O)c2ccnc(Cl)c2)C1 (stereo not given)
85 | -3.0 | COc1ccc(-c2csc(Nc3ccc(Oc4ccccc4)cc3)n2)cc1
86 | -0.4 | CC(=O)Nc1cccc(-c2ccnc3c2CC(C)(C(=O)NCc2ccc(F)c(F)c2)O3)c1 (stereo not given)
87 | 1.3 | Cc1cc(N=O)c(C)cc1O
88 | 0.7 | COc1ccc(CNC(=O)c2cn(Cc3ccccc3F)c(=O)s2)cc1
89 | -4.3 | COc1ccc(C(O)c2nc(-c3cccc(F)c3)cs2)cc1 (stereo not given)
90 | -5.5 | CC(C)/C=C/C(=O)N1CCC(N2CCC(C(=O)NCC3CCCO3)CC2)CC1 (stereo not given)
91 | -0.8 | Cn1cc(Cc2ccc(C(=O)N3CCCCC3)cn2)c2ccccc21
92 | -4.2 | COc1cc(CNC(=O)Nc2cccn3nc(COCCO)nc23)cc(OC)c1OC
93 | 2.3 | CC(=O)Nc1cc(-c2ccc(C(=O)N3CCOCC3)cc2)cn2c(-c3ccccc3)cnc12
94 | -0.6 | Cc1nc2ccc(C(=O)NCCCn3ccnc3)cn2c1N(C)C(=O)CCc1ccccc1
95 | 16 | CCOC(=O)C1(C(=O)OCC)COC(=O)C1CN1Cc2cc3ccccc3nc2C1 (stereo not given)
96 | -4.2 | Cc1ccccc1S(=O)(=O)NC(=O)C1(C)CCN1C(=O)c1c(C)noc1C (stereo not given)
97 | -2.6 | COC(=O)[C@]12CCCCC=C1N(CCc1ccc(OC)c(OC)c1)C(=O)[C@H](CC(=O)NCCc1ccccc1OC)C2
98 | -0.1 | Cc1cc(C)cc(CC(=O)N2CCC2(C)C(=O)NS(=O)(=O)c2ccc(Br)cc2)c1 (stereo not given)
99 | 9.1 | CCCCC(=O)N(C)c1c(C)nc2ccc(C(=O)NCCOc3ccc(OC)cc3)cn12
100 | -4.1 | CCOC(=O)N1CCN(C(=O)C[C@@H]2C[C@@]3(C(=O)OC)CCCCC=C3N(Cc3ccc4c(c3)OCO4)C2=O)CC1
101 | 4.5 | c1ccc(CNn2nnc3ccccc32)cc1
102 | 1.5 | O=C(NCc1ccccc1F)Nc1nnc([C@@H]2C[C@H](O)[C@@H](CO)O2)s1
